HIV TAR-Tat: HIV-1 TAR-Tat binding disruption; HIV-1 TAR RNA, Tat peptide displacement FRET; hits give high values; z-score (test concentration not listed); 100,000 compounds, 0.6% hits;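 note: score is relative to mean and SD of negative controls; some compounds called inactive have numbers as strong as hits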
CDC25B CDK2 inh: human CDC25B-CDK2/CyclinA binding inhibition. AID 1259370. 94,000 compounds, 0.72% hits. P30305+P24941. HTRF CDC25B-CDK2/CyclinA binding, anti-His/anti-Flag; hits give high values. z-score (concentration not given with the values);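 note: score is relative to mean and SD of negative controls; strong numbers were not always called active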
Active calls of the source: *; . = no result given.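 Rule for the calls: active = z-score from 3 up in half or more of its runs; inactive = the rest.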 Rows were taken by chance. Share with any hit: about 0.94%.

The first 2 records, to show the layout:
Fields: CDC25B CDK2 inh	HIV TAR-Tat
O=c1c2ccccc2nc(Cc2ccccc2)n1-c1ccc2ccccc2c1
    -1.9	.
COc1ccccc1/C=C/c1nc(C#N)c(N2CCc3ccccc3C2)o1
    0.79	0.38

This part in full, from the first entry:
Fields: CDC25B CDK2 inh	HIV TAR-Tat
O=c1c2ccccc2nc(Cc2ccccc2)n1-c1ccc2ccccc2c1
    -1.9	.
COc1ccccc1/C=C/c1nc(C#N)c(N2CCc3ccccc3C2)o1
    0.79	0.38
CCCCN1C(=O)C(O)(CC(=O)c2c(C)n[nH]c2C)c2cc(Br)ccc21 (centres undefined)
    -0.74	2.4
Cc1csc2nc(CSc3nnc(-c4ccccc4)o3)c(Br)n12
    .	0.79
CCOC(=O)c1c(-c2ccc(C)cn2)csc1N
    -0.22	.
Clc1ccc(-c2nc3c4ccccc4ccn3c2CN2CCOCC2)cc1
    -1.3	1.1
COc1ccc(OCC(=O)N(Cc2ccco2)Cc2cccs2)cc1
    0.83	-6.2
COC(=O)c1sc(SC)c(C#N)c1-c1ccco1
    1.4	.
CC(C)Cn1c(=O)c2ccccc2n2c(CCC(=O)N3CCC(N4CCCCC4)CC3)nnc12
    -1.6	-0.99
COc1ccc2occ(CC(=O)Nc3sc4c(c3C#N)CCCC4)c2c1
    -2.1	-1.1
COC(=O)CSc1ccc2c3c(cccc13)C(=O)c1ccccc1-2
    -2.1	-16
O=C(Cn1ncc2c1-c1ccccc1OC2)Nc1cccc(Cl)c1
    0.46	0.21
Cc1ccc(-n2ncc3c(Nc4ccc5c(c4)OCCO5)ncnc32)cc1
    .	0.16
O=C1CCCc2cc(S(=O)(=O)N3CCN(c4cccc(Cl)c4)CC3)ccc2N1
    .	3.1
O=C(NC1CCCC1)C1c2c(ccc3ccccc23)OCC(=O)N1C1CCCCC1 (centres undefined)
    .	3
COc1ccc(/C=C/c2nc(-c3cccnc3)no2)cc1OC
    0.66	0.32
Cn1c(Cn2c(=O)sc3ccccc32)nnc1SCc1cccnc1
    -0.07	.
COC(=O)c1cc(S(=O)(=O)N(C)CC(=O)Nc2ccc3c(c2)OCO3)cn1C
    .	-1.4
CCn1c2ccccc2c2nnc(N3CCN(c4ccccc4)CC3)nc21
    0.38	0.26
Cc1nc2ccc(S(=O)(=O)NCC(=O)N3CCCC(C)C3)cc2s1 (centres undefined)
    -0.98	2.2
CCn1nc(C)c(CNC(=O)NCC2CCCO2)c1C (centres undefined)
    .	-0.25
Cn1c(C(=O)Nc2ccc(S(N)(=O)=O)cc2)cc2c(=O)n3ccccc3nc21
    .	27*
CC(C)c1ccc(C2CC(c3c(O)n(C)c(=O)[nH]c3=O)=Nc3ccccc3S2)cc1 (centres undefined)
    -2.1	2.5
Cc1ccc2oc3nn(-c4ccc(C)c(C)c4)c(=O)c-3cc2c1
    -0.58	1.6
O=C(Nc1cc(Cl)cc(Cl)c1)Nc1cccnc1N1CCC(C(F)(F)F)CC1
    -0.67	.
COc1cc(OC)c(NC(=O)CSc2nc3ncccc3o2)cc1Cl
    .	-0.62
COCCNC(=O)C(C)N1C(=O)CCn2nc(C)cc21 (centres undefined)
    .	2.2
CCc1nnc(NC(=O)Cc2csc(C)n2)s1
    -0.96	2.2
O=c1[nH]c(SCc2ccccc2)nc2nc[nH]c12
    -0.49	-0.02
c1ccc(CN2CCn3c(nc4ccccc43)C2)cc1
    -1.8	0.68

(cont.)
Fields: CDC25B CDK2 inh	HIV TAR-Tat
COc1ccc(N2CCN(c3cc(-n4nc(C)cc4C)ncn3)CC2)cc1
    .	-1.6
CCCc1ccc(-c2ccc(C#N)cc2)nc1
    -1.9	.
Cc1cc(C)c(C)c(S(=O)(=O)Nc2ccc3c(c2)CC(=O)N3)c1C
    .	0.79
CCCSc1nc2c(c(=O)[nH]1)CCCC2
    0.36	1.6
COc1cccc(NC(=O)C(C)Sc2ncnc3c2oc2nc4c(cc23)COC(C)(C)C4)c1 (centres undefined)
    .	-1.1
O=c1oc2ccccc2cc1-c1cn2cc(Cc3cccc(C(F)(F)F)c3)sc2n1
    0.17	.
COc1ccc(-c2nn(-c3ccccc3)cc2C2CC(c3cccs3)=NN2S(C)(=O)=O)cc1 (centres undefined)
    -2.6	-6
CC1=CC(=O)C2(C)C3CCC4CC(=O)CCC4(C)C3=CCC2S1(=O)=O (centres undefined)
    -0.02	.
O=C1CCSc2ccc(S(=O)(=O)Nc3ccc(-c4ccno4)cc3)cc2N1
    .	0.2
CN(CCO)c1cc(NCc2ccco2)c2c3c(onc13)-c1ccccc1C2=O
    -1.2	-5.3
Cn1c(=O)n(C)c2cc(S(=O)(=O)Nc3cc(Cl)ccc3O)ccc21
    -2.4	-3.3
CCCSc1nnc2c3ccccc3n(CC)c2n1
    0.53	1.8
COc1cc(NC(=O)N2CC(C)Sc3ccccc32)cc(OC)c1 (centres undefined)
    .	-0.33
CC1(C)CC(=O)c2c(SCCOC(=O)c3ccccc3Cl)sc(C#N)c2C1
    -1.9	.
COC(=O)c1ccc(CSc2nc(-c3ccco3)nc3c2c(=O)n(C)c(=O)n3C)o1
    -7.7	.
CCOc1ccc(N2C(=O)c3cccnc3C2Nc2ccc(F)cc2Cl)cc1 (centres undefined)
    .	0.63
CCOC(=O)c1c(C)oc2nc(C)nc(Nc3ccc(OC)cc3)c12
    .	0.94
CCS(=O)(=O)Nc1cccc(-c2cn3ccsc3n2)c1
    .	0.79
CCCCSc1nc2n(n1)C(c1ccc(Br)cc1)C1=C(CCCC1=O)N2 (centres undefined)
    -1.7	-0.14
COc1cccc(-c2noc(NCCN3CCCc4ccccc43)n2)c1OC
    .	-0.41
O=C1CCCC2=C1C(c1ccccc1Cl)c1c([nH]n(-c3ccccc3)c1=O)N2 (centres undefined)
    -3.2	2.2
Cc1cc(NS(=O)(=O)c2ccc3nc(-c4ccccc4)[nH]c3c2)ccc1Br
    -0.87	.
O=C(c1ccccc1)c1ccc2nc(NC3CCCC3)c3nncn3c2c1
    .	-0.56
C=CCOc1ccc(C2/C(=C(\O)c3ccc(F)cc3)C(=O)C(=O)N2Cc2cccnc2)cc1 (centres undefined)
    -2.9	-1.4
CCCOC(=O)CSc1nc(-c2ccccc2)c(C#N)c(=O)[nH]1
    -1.1	1.1
CCCCCCCCCn1c(SCC(N)=O)nc2c1c(=O)[nH]c(=O)n2C
    -0.21	.
O=C(O)/C=C/C=C/c1ccccc1
    .	1.8
Cc1cc(C)cc(OCC(=O)Oc2ccc(-n3cnnn3)cc2)c1
    -0.25	-1
CC(=O)Nc1nnc(SCC(=O)Nc2c(C)cc(C)cc2C)s1
    -0.95	-0.6
CCN(CC)c1nc(N)c([N+](=O)[O-])c(Nc2ccccc2F)n1
    .	-0.06

Further records
Fields: CDC25B CDK2 inh	HIV TAR-Tat
CCNc1nc(NC(C)C)nc(SCCOc2ccc(C)cc2)n1
    0.66	.
O=C(c1cc(CN2CCOCC2)on1)N1CCN(c2ncccn2)CC1
    .	-1.4
CC1CCCCC1NC(=O)CCS(=O)(=O)c1ccc2c(c1)n(C)c(=O)c(=O)n2C (centres undefined)
    -1.3	0.06
COc1cc(NC(=O)CSc2nnc(-c3cc4ccccc4n3C)o2)cc(OC)c1
    -1.6	1.8
CCOC(=O)c1cc(S(=O)(=O)N2CCN(CC)CC2)[nH]n1
    .	0.8
CCc1cccc(C)c1Nc1c(-c2ccsc2)nc2ncccn12
    -0.88	0.03
Cn1c(S(=O)(=O)Cc2ccc(Cl)cc2)nc2ccccc21
    -0.66	0.98
O=C(c1ccccc1F)N1CCN(C2=NS(=O)(=O)c3ccccc32)CC1
    0.18	.
COc1cc(Cl)ccc1S(=O)(=O)N1CCN(S(=O)(=O)c2ccc(Cl)cc2OC)CC1
    0.12	1.7
CC(C)(C)n1cnc2cc(NC(=O)c3ccccc3)ccc21
    -2	.
O=C(c1ccc2c(Cl)c3c(nc2c1)CCC3)N1CCOCC1
    -0.91	0.07
CCOC(=O)c1c(NC(=O)Cn2nc(C(F)(F)F)c3c2CCC3)sc2c1CCCC2
    -1.8	4
Cc1ccc(N2CC(O)=C(c3nc4ccccc4n3C)C2=N)c(Br)c1
    0.27	1.3
CC(C)(C)c1cc2nc(C(F)(F)F)cc(SCCOC(=O)c3cccs3)n2n1
    0.53	.
O=C(CSc1nnc(Cn2c(=O)sc3ccccc32)n1-c1ccccc1)N1CCCCC1
    -1.4	.
O=C(CN1C(=O)c2ccccc2S1(=O)=O)Nc1ccc2c(c1)OCO2
    -0.06	1.4
CCN(CC)Cc1cc(=O)n(Cc2nc(-c3cccc(C)c3)oc2C)c2c1c(C)nn2C
    .	0.22
Cc1cccn2c(=O)c(C(=O)N3CCC(C)CC3)cnc12
    .	1.1
CC1=C(C(N)=O)C(c2ccc(O)cc2)n2nnnc2N1 (centres undefined)
    -0.29	1.1
CCCN1C(=O)C2(/C(=C(/O)c3ccc(C)c(F)c3)C(=O)C(=O)N2CCCN(C)C)c2ccccc21 (centres undefined)
    0.89	4.2
CN1C(=O)C(C)(C)c2cc(S(=O)(=O)N3CCC(c4ccccc4)C3)ccc21 (centres undefined)
    .	0.48
CCN(CCCNc1nc2ccccc2c2nc(-c3cccnc3)nn12)c1cccc(C)c1
    -0.33	0.26
O=C(NCc1cc(F)cc2c1OCOC2)c1ccc(Oc2cc(Cl)cc(Cl)c2)o1
    -0.04	.
COC(=O)C1=C(C)NC2=C(C(=O)CC(c3ccc(OC)c(OC)c3)C2)C1c1ccc(OC)c(OC)c1 (centres undefined)
    -1.8	1.8
CSc1ccc(CC(=O)Nc2nc3ccc(S(=O)(=O)N(C)C)cc3s2)cc1
    .	0.84
Cc1nn2c(N)c(-c3ccc(F)cc3)nc2s1
    .	-0.57
CSc1cccc(NC(=O)C2C3C=CC4(O3)C2C(=O)N(C2CC2)C4C(=O)NC2CCCCC2)c1 (centres undefined)
    0.28	-0.16
N/C(=N\OC(=O)c1ccc([N+](=O)[O-])o1)c1ccc(OCc2ccc(Cl)cc2)c(Cl)c1
    -1.8	.
CCOc1cc(-c2ccc(OC)cc2)cc(=O)c2c(C)oc(C)c12
    -0.86	-1.9
Cc1ccc(Cl)cc1NC(C#N)c1ccccc1 (centres undefined)
    -0.69	.

Four compounds out of the list, arranged by molar mass, ascending:
Fields: CDC25B CDK2 inh	HIV TAR-Tat
Cc1ccc(Cl)cc1NC(C#N)c1ccccc1 (centres undefined)
    -0.69	.
Cn1c(S(=O)(=O)Cc2ccc(Cl)cc2)nc2ccccc21
    -0.66	0.98
CCN(CC)Cc1cc(=O)n(Cc2nc(-c3cccc(C)c3)oc2C)c2c1c(C)nn2C
    .	0.22
CCN(CCCNc1nc2ccccc2c2nc(-c3cccnc3)nn12)c1cccc(C)c1
    -0.33	0.26

Later entries:
Fields: CDC25B CDK2 inh	HIV TAR-Tat
O=C(c1cc2ccccc2oc1=O)N1CCc2cc([N+](=O)[O-])ccc21
    -1	.
COCCCNc1nc2ccccc2c2nc(CCn3c(C)nc4ccccc43)nn12
    -0.94	1.6
COc1ccc(SCc2cc(=O)n3nc(C)sc3n2)cc1
    -2	2.8
CCOC(=O)c1c(NC(=O)c2cc(S(=O)(=O)C(C)C)c(SC)s2)sc(C)c1C
    -2	.
COc1cc(C2SC(NC(C)=O)=NN2C(C)=O)cc(Br)c1OCc1ccc(F)cc1 (centres undefined)
    -1.7	1.8
CN(CC(=O)NC1CCCCCC1)S(=O)(=O)c1ccc2c(c1)c(=O)n(C)c(=O)n2C
    -2.7	.
Cc1ccc2c(=O)cc(CSc3ncn[nH]3)[nH]c2c1C
    .	0.87
CCCCN1C(=O)C(O)(CC(=O)c2ccc3c(c2)OCCO3)c2cc(Br)ccc21 (centres undefined)
    0.15	-1.1
CCCCn1cc(S(=O)(=O)c2ccccc2)c(=O)c2cc(OC)c(OC)cc21
    -2.2	1.9
COCCN(CC(O)Cn1c2ccccc2c2ccccc21)S(=O)(=O)c1ccc(C)cc1 (centres undefined)
    -0.92	.
CC1=C(c2ccc(C)c(C)c2)S(=O)(=O)NC1=NCCc1ccc(S(N)(=O)=O)cc1
    0.4	-1.1
O=S(=O)(NCC1CCN(CCc2cccs2)CC1)c1cnc[nH]1
    .	0.46
CC1Oc2ccccc2N(CC(=O)N2CCCN(c3cc(=O)n(C(C)C)c(=O)n3C(C)C)CC2)C1=O (centres undefined)
    .	0.79
Cc1ccc(S(=O)(=O)c2nnn3c2nc(NCc2cccs2)c2ccccc23)cc1
    -5.7	0.71
O=C(c1ccc(Cl)cc1)n1ccc(-c2cccc([N+](=O)[O-])c2)n1
    -0.65	.
COc1ccc(OC)c(CCN=C2NS(=O)(=O)C(c3ccc(C)cc3)=C2C)c1
    -1.3	-1.5
COc1ccc(OC)c(CNS(=O)(=O)c2cc(-c3cnc(C)o3)ccc2OC)c1
    .	1.4
Cc1ccc(Cn2c(=O)c3ccc(C(=O)NCC(C)C)cc3n3c(=O)[nH]nc23)cc1
    -0.84	1.4
O=C(CCC1=NS(=O)(=O)c2ccccc2N1)NCCCc1ccccc1
    .	-0.1
CCOC(=O)N1CCN(C(=O)C2CC(c3ccc(F)cc3)=NO2)CC1 (centres undefined)
    -1.2	0.52
Cc1nc(Cc2c(Cl)cccc2Cl)sc1C(=O)NN
    -1.8	.
COc1ccc(-c2nnc3c4ccccc4c(C)nn23)cc1S(=O)(=O)NC(C)(C)CO
    -0.2	1.3
COCCCN1C(=O)C(=O)/C(=C(/O)c2ccccc2)C1c1ccc(Br)cc1 (centres undefined)
    -0.49	0.39
COc1ccc(-c2nn(C)c3sc(C(=O)NC4CCCC4)cc23)cc1OC
    -1.1	.

Screens: PubChem, Center for Chemical Genomics, University of Michigan
